RanGTP-Impb inh: inhibitors of RanGTP-importin-beta interaction, primary screen, biochemical, FRET, CFP-Ran, YFP-importin-beta, homogeneous; 1.1% of 300,000 active; inhibition, % (test concentration not listed); Ran GTPase (GTP-bound) - importin-beta complex; cell-free CFP-Ran/YFP-importin-beta FRET ratio;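 active = most replicates above 15%; inconclusive = exactly half above 15%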;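 also: 0% = DMSO wells and 100% = Ran loaded with GDP instead of GTP; wells of about 40 µL received 100 nL stock; the first replicate is given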
rRNA inh HTS: reduced GFP signal of wild-type E. coli, primary screen, bacterial rRNA inhibitor project, GFP/RFP fluorescence, OD600, single point; E. coli WT GFP vs humanized-ribosome RFP mutants, 24 h; active compounds read low; DMSO median 0, no signal -100; GFP signal change (wild-type ribosome), % (no concentration beside the values); 1.6% of 350,000 active;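 active = significant combined selectivity score with lowered wild-type GFP, culture density cut under 30%, mutant RFP and density less affected; inactive = any of these conditions unmet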; also: one replicate is shown; some compounds called inactive have numbers as strong as hits
T cruzi inh: inhibitors of intracellular T. cruzi growth, primary screen, luminescence, NIH3T3 host cells. T. cruzi beta-gal in NIH3T3, 90 h. inhibition, % (test concentration not listed). 1.4% of 300,000 active;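 active = mean inhibition across valid replicates above about 55%, limit read from the data; inconclusive = mean below that limit but half or more replicates reach it; inactive = mean below it, under half of replicates reach it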;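 also: signal also drops with host cell toxicity which is not excluded here; 0% = plate median of DMSO wells and 100% = zero luminescence signal; higher percent means less beta-gal luminescence so fewer parasites; stock transfer was 50 nL into about 50 µL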
Vif A3G: inhibitors of Vif binding to APOBEC3G peptide, primary screen, biochemical, TR-FRET, GST-Vif 1-94, biotin-A3G peptide, dose response retest (AID 1117319) | inhibition, %, or IC50 in µM where a hit was titrated | Virion infectivity factor (Human immunodeficiency virus type 1 group M subtype B (isolate … | TR-FRET GST-Vif / biotin-A3G peptide binding; higher % means a stronger effect; test concentration not given here; strong numbers were not always called active | 0.57% of 260,000 active;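 active = above the screen mean plus three standard deviations and confirmed in dose response; inconclusive = results disagree or hit not tested in dose response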;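 also: Vif residues 1-94 fused to GST binding biotinylated APOBEC3G peptide 110-148; 0% = full assay without inhibitor and 100% = GST in place of GST-Vif; retest series ran down from 100 µM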
A1 inh: caspase 3/7 activation in MEF A1-2A-BIM cells, primary screen, A1 inhibitor project, cell-based, luminescence, HTS | 0.066% of 330,000 active | AID 2462, 2010 | caspase activation, % (no concentration beside the values) | Caspase-Glo 3/7 luminescence, 3 h; percent of clofoctol response, vehicle zero;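 active = over half of replicate activation scores above 10%, or exactly half above 10 with the replicate mean above 10; inconclusive = replicate mean below 10 yet half the replicates above 10; inactive = over half of replicates below 10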;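 also: wells of about 30 µL received 50 nL stock; many hits fall short of the cut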
Calb FLC: C. albicans growth inhibition with fluconazole, primary screen, CaCi-2 strain, Alamar Blue fluorescence; C. albicans CaCi-2 (fluconazole-resistant clinical isolate) + fluconazole, 48 h; growth inhibition, % (test concentration not listed); 0.57% of 300,000 active; AID 1979, 2009;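 active = most replicates above 75%; inconclusive = exactly half above 75%; inactive = most below 75%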;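 also: all wells also contain fluconazole at 8 µg/ml as a sub-toxic cotreatment; 0% = median of DMSO wells and 100% = median of geldanamycin control wells; wells of about 8 µL received 7.5 nL stock; the first replicate is given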
AF4-AF9 inh: inhibitors of AF4 peptide binding to AF9, primary screen, biochemical, AlphaScreen, biotin-AF4 peptide, FLAG-AF9, single point; Protein AF-9 (Homo sapiens), P42568; inhibition, % at 10 µM; 0.47% of 350,000 active; AID 651704, 2012;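 active = every replicate reaching a set inhibition limit, whatever the replicate mean, cut at about 25% in these data; inconclusive = mean inhibition reaches that limit but some replicates miss it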;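 also: 0% = plate neutral control median and 100% = total signal loss; the record names both 10 and 1 µM as test concentration; the first replicate is given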
Target sequence (P42568 whole entry, looked up): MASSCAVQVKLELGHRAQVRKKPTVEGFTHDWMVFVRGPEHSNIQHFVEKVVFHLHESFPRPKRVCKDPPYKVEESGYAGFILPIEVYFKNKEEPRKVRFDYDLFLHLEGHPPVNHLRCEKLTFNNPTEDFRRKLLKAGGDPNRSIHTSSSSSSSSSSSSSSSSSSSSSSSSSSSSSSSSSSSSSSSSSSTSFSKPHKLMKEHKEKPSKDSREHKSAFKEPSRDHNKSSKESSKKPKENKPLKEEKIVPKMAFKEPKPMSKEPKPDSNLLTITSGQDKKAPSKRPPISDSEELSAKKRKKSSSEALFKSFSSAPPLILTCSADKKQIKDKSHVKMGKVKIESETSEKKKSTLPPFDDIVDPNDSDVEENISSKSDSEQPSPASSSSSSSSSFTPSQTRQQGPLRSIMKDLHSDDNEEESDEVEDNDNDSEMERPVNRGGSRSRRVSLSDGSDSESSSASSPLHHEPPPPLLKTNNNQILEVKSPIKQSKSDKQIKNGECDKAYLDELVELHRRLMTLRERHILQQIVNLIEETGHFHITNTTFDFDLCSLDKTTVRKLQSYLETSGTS
Beta cell apopt: inhibitors of cytokine-induced beta cell apoptosis, primary screen, luminescence; INS-1E cytokine-induced death, ATP luminescence, 48 h; percent of positive-control rescue, neutral wells zero; protection from apoptosis, % (concentration not given with the values); 0.8% of 300,000 active; AID 435005, 2010;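 active = all replicates at 75% or more, or half of them and the mean; inconclusive = half reach 75% but not the mean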;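 also: 0% = cytokine-treated negative control wells and 100% = positive control rescue; higher means more ATP so stronger rescue from cytokine killing; wells of about 40 µL received 100 nL stock; the first replicate is given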
rRNA inh HTS OD600: further read-out of rRNA inh HTS, marked with its call; OD600 change, %; measured here: OD600 growth;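 optical density of the mix in the first replicate; 0 = DMSO median and -100 = no signal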
rRNA inh HTS RFP: recorded beside rRNA inh HTS, whose call it bears; RFP signal change, %; measured here: RFP humanized mutant strains;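 first replicate; 0 = DMSO median and -100 = no signal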
Active calls of the source: *; ? = inconclusive; · = no result given; & = joins results of further samples.

The first 2 entries, ahead of the listing:
SMILES	RanGTP-Impb inh	rRNA inh HTS	rRNA inh HTS OD600	rRNA inh HTS RFP	T cruzi inh	Vif A3G	A1 inh	Calb FLC	AF4-AF9 inh	Beta cell apopt
CN(C)C(CNC(=O)C1CC(=O)N(Cc2ccccc2)C1)c1ccccc1 (stereo unspecified)	1.9	10	14	-3.2	-5	3%	-0.1	-2	4.9	-4
COc1cc(OC)cc(C(=O)NC2CC3CCC(C2)N3Cc2ccco2)c1 (stereo unspecified)	2.4	·	·	·	-1	15%	·	-7	·	·

The list itself, repeating the preview:
SMILES	RanGTP-Impb inh	rRNA inh HTS	rRNA inh HTS OD600	rRNA inh HTS RFP	T cruzi inh	Vif A3G	A1 inh	Calb FLC	AF4-AF9 inh	Beta cell apopt
CN(C)C(CNC(=O)C1CC(=O)N(Cc2ccccc2)C1)c1ccccc1 (stereo unspecified)	1.9	10	14	-3.2	-5	3%	-0.1	-2	4.9	-4
COc1cc(OC)cc(C(=O)NC2CC3CCC(C2)N3Cc2ccco2)c1 (stereo unspecified)	2.4	·	·	·	-1	15%	·	-7	·	·
CC(NCc1ccccc1O)c1ccccc1 (stereo unspecified)	-1.4	7	4	2.7	-10	8%	0.4	-4	-12	2
CCOC(=O)c1cc(C#N)c(Nc2ccccc2OC)nc1C(F)(F)F	4.8	·	·	·	-1	?	-0.4	-5	1.6	·
CN(C)c1ccc(N2C(=NC(=O)CC3CCCCC3)SC3CS(=O)(=O)CC32)cc1 (stereo unspecified)	0.4	3	6	-0.5	-11	·	1.3	2	-0.7	-3
CC1=C(C(=O)OCCC(C)C)C(c2ccc3c(c2)OCO3)NC(=O)N1 (stereo unspecified)	-3.5	-8	-18	-0.2	-4	·	0.1	6	-1.5	0
Cc1ccc(SCC2=NNC(=O)C2)cc1	?	·	·	·	-17	75%	-0.5	26	·	-6
COc1ccc(NC(=O)/C(=C\c2ccncc2)NC(=O)c2ccccc2)cc1	-5.1	3	0	-0.1	-15	2%	-0.2	0	-15	-3
Nc1cc(C(=O)c2ccccc2)ccc1[N+](=O)[O-]	2.0	-16	-17	-2.6	12	3%	-0.8	8	4.3	-9
COc1ccc(CN2CC(C(=O)NCCCOC(C)C)CC2=O)cc1 (stereo unspecified)	4.2	·	·	·	-6	28%	0.4	5	·	5
Cn1c(=O)cc(C(=O)N/N=C/c2ccc(Cl)cc2)[nH]c1=O	2.7	·	·	·	-10	15%	-0.8	-3	-1.8	-1
Cc1cc(C)c(C(N)=O)c(SCC(=O)c2cc(C)n(-c3cc(C)on3)c2C)n1	·	2	16	2.1	·	·	-0.8	·	-3.0	40
Cc1ccccc1COCCN1CCN(S(=O)(=O)c2ccccc2)CCC1=O	-4.2	-3	-6	-1.9	-5	1%	0.7	-5	-6.4	-2
CC(=O)Nc1cnn(Cc2ccc(Br)cc2)c1	2.0	·	·	·	-19	0%	-0.3	-7	·	3
CCOC(=O)N1CCC(N2C(=O)c3ccc(C(=O)NCc4ccco4)cc3C2=O)CC1	2.0	-1	4	-2.3	-7	10%	-0.5	-3	3.3	1
COc1ccc(/C=C/C(=O)O)cc1COc1cccc(C)c1	-2.4	·	·	·	-22	·	0.3	1	·	7
Cc1ccc(N=C2NC(=O)C(CO)(CO)S2)cc1	-2.3	7	11	-0.6	-17	-1%	-0.7	0	1.2	-6
CC1Cc2cc(/C(O)=C3/C(=O)C(=O)N(CCCn4ccnc4)C3c3cccc([N+](=O)[O-])c3)ccc2O1 (stereo unspecified)	1.9	1	12	-3.0	0	10%	-0.4	-4	-2.1	-2
CCOC(=O)N1CCN(c2ncnc3scc(-c4ccccc4)c23)CC1	-0.1	-49	-76	-12	7	-2%	-0.5	-2	0.1	-3
CCOC(=O)CSc1nc2c(c(=O)[nH]c(=O)n2C)n1C/C=C(/C)Cl	-6.1	·	·	·	-19	7%	-0.4	5	·	-1
CCCCn1nnc(NC(=O)c2ccco2)n1	2.6	·	·	·	-8	-6%	0.6	-2	·	1
COc1ccc(OC)c(NC(=O)CSC2=C(C#N)C(c3ccco3)C3=C(CCCC3=O)N2)c1 (stereo unspecified)	?	·	·	·	8	10%	-0.4	-1	·	-13
CCNc1nc(NCC)nc(OCCOC(=O)c2ccccc2)n1	?	·	·	·	13	12%	-0.7	2	·	-1
CCOC(=O)C1=C(CN2CCN(C(=O)c3ccco3)CC2)NC(=O)NC1c1ccc(Cl)cc1 (stereo unspecified)	0.0	-1	0	0.4	2	·	0.5	14	3.4	3
COc1cc(C(=O)Nc2cccc(C)c2C)c(Br)c(OC)c1OC	3.4	4	3	2.6	-21	4%	-0.5	-9	-3.4	3
More structures follow:
SMILES	RanGTP-Impb inh	rRNA inh HTS	rRNA inh HTS OD600	rRNA inh HTS RFP	T cruzi inh	Vif A3G	A1 inh	Calb FLC	AF4-AF9 inh	Beta cell apopt
CC(C)CCN(CCC(C)C)C(=O)Cc1c(O)c2ccccc2[nH]c1=O	-0.6	5	8	-1.4	6	·	0.9	2	-1.6	-8
C=CCN=C1SC(CC)C(=O)N1S(=O)(=O)c1ccc(C)cc1 (stereo unspecified)	1.4	·	·	·	1	?	0.3	-1	·	-5
COc1ccc(CNC(=O)c2ccc(CS(=O)Cc3ccc(Cl)cc3)o2)cc1 (stereo unspecified)	-4.9	4	0	-5.3	-13	·	2.5	-5	-3.9	-3
CCN(CC(=O)Nc1c(F)cccc1F)C(=O)Cc1ccc(OC)c(S(=O)(=O)N2CCOCC2)c1	0.0	7	7	-0.9	7	-2%	0.8	1	0.5	-2
CCN1CCN(C(c2cccs2)C(C)NC(=O)NC2CCCCC2)CC1 (stereo unspecified)	-3.8	12	4	1.0	-1	-1%	0.7	1	-0.4	-4
COCCCNc1nc2ccccc2nc1NS(=O)(=O)c1ccc(C)cc1C	1.2	-12	-16	-1.4	20	-2%	0.5	2	5.5	4
O=C(CN(C(=O)Cn1nnc(-c2cccs2)n1)c1ccc2c(c1)OCCO2)NC1CCCCC1	-2.1	·	·	·	-16	-3%&-6%	0.5	-11	·	3
S=C(Nc1cccnc1)Nc1cccc2cnccc12	1.4	11	-10	22	8	·	0.9	12	-2.9	-9
Cc1ccc(NC2=C(Cl)C(=O)N(C3CCCCC3)C2=O)cc1	7.3	·	·	·	-17	·	0.2	-18	·	5
Oc1cccc2ccc(/C=C/c3ccc(Br)s3)nc12	3.2	-48	-68	-11	-38	9%	-4.4	1	5.3	27
Nc1cc(N)nc(SCC(=O)c2ccccc2)n1	-1.8	·	·	·	-7	?	0.1	-10	·	-1
Cc1csc(SCC(=O)c2cc(C)n(Cc3cccs3)c2C)n1	3.5	·	·	·	19	3%	0.3	3	·	14
Cc1ccccc1NC(=O)C1C2/C=C\CCCCC21 (stereo unspecified)	-0.5	·	·	·	10	17%	-0.1	1	·	5
Cc1ccc(S(=O)(=O)N2CCC(=O)N(CCOCc3ccc(Cl)cc3)CC2)cc1	0.9	-32	-49	-6.0	6	·	-1.3	4	-14	8
C=CCc1ccccc1OCC(=O)O	2.5	0	3	4.1	-11	·	0.4	-2	-11	-2
O=C(N/N=C/c1ccc(Br)s1)Nc1ccccc1	-3.0	-6	1	3.4	15	-19%	0.9	-7	3.2	1
O=C(N/N=C/c1cccc([N+](=O)[O-])c1O)c1cccs1	-8.1	5	14	8.3	1	31%	-0.2	-3	11	-3
CCCN(CCC)Cc1c(C(=O)N/N=C/c2ccoc2)nnn1-c1nonc1N	0.6	3	12	0.3	3	·	1.6	-2	0.5	-2
CCOc1ccc(NS(=O)(=O)c2cnc(Cl)c(Cl)c2)cc1	2.3	·	·	·	10	1%	0.1	-1	·	3
Cc1ccccc1CN1CCC(n2nccc2NC(=O)CCCc2ccccc2)CC1	2.9	1	-6	1.6	3	·	1.4	-31	-1.9	-1
Cn1c(C(=O)NC2CCCCC2)cc2sccc21	0.2	·	·	·	-17	-9%	-2.3	-27	·	-13
COc1ccc(-c2c(C(F)(F)F)[nH]n3c(=O)cc(-c4ccccc4)nc23)cc1	9.4	-2	15	-1.1	-15	-2%	-1.3	-1	-7.0	-4
CN(C)S(=O)(=O)Oc1ccc(Cl)cc1C(=O)Nc1cccc(C(F)(F)F)c1	3.0	·	·	·	10	32%	0.5	?	·	4
COc1ccc(Nc2nc(NCc3ccco3)nc(N/N=C/c3ccccc3Cl)n2)cc1	-0.1	·	·	·	?	1%	0.3	20	·	1
Cc1cccc(NC(=O)c2ccc3ccccc3n2)n1	1.2	·	·	·	-2	-1%	-4.4	-10	·	0
Going on with the list:
SMILES	RanGTP-Impb inh	rRNA inh HTS	rRNA inh HTS OD600	rRNA inh HTS RFP	T cruzi inh	Vif A3G	A1 inh	Calb FLC	AF4-AF9 inh	Beta cell apopt
Cc1ccc(-n2c(=O)c3sccc3n(Cc3cc(=O)n4ccccc4n3)c2=O)cc1F	4.5	4	10	-10	-1	-8%	-0.7	3	-2.8	-9
COc1ccc(NC(=O)CCCc2nnc3n(C)c(=O)c4sccc4n23)cc1	-1.0	11	3	1.6	-12	·	0.6	-3	0.2	-11
O=C(Nc1ccc(F)c(Cl)c1)c1ccccc1	·	-37	-55	-7.0	·	·	-9.3	·	-1.2	6
C/C(=N\NC(=O)c1cccc(S(=O)(=O)N2CCOCC2)c1)c1ccco1	0.1	4	-7	-1.6	-12	30%	0.6	-5	7.0	-4
CCCn1c(SCC(=O)c2ccc3c(c2)OCCO3)n[nH]c1=O	3.9	-9	-9	-0.4	-5	7%	-0.4	-15	-0.4	-4
CSc1ccc(C2NC(=O)CCC2[N+](=O)[O-])cc1 (stereo unspecified)	-3.4	9	4	-0.9	-1	-1%	1.3	-6	2.2	-7
CC(NC(=S)Nc1ccc(OC(F)F)c(Cl)c1)C(C)(C)C (stereo unspecified)	3.0	-44	-73	-11	7	?	-2.0	3	-2.2	5

Compound profiles, as listed above. Order of screens: RanGTP-Impb inh | rRNA inh HTS | rRNA inh HTS OD600 | rRNA inh HTS RFP | T cruzi inh | Vif A3G | A1 inh | Calb FLC | AF4-AF9 inh | Beta cell apopt
`CC1Cc2cc(/C(O)=C3/C(=O)C(=O)N(CCCn4ccnc4)C3c3cccc([N+](=O)[O-])c3)ccc2O1` (stereo unspecified) as listed: 1.9 | 1 | 12 | -3.0 | 0 | 10% | -0.4 | -4 | -2.1 | -2
`CC1=C(C(=O)OCCC(C)C)C(c2ccc3c(c2)OCO3)NC(=O)N1` (stereo unspecified) as listed: -3.5 | -8 | -18 | -0.2 | -4 | · | 0.1 | 6 | -1.5 | 0

Only part of the results is shown, so the mix of outcomes need not match the whole.
